StopGo RLuc = lowers the Renilla signal of an FMDV 2A StopGo reporter; 0.32% of 120,000 active; AID 1745857; Potency, µM (titrated, usually from 57.5 µM), without a hit: top-dose signal change, negative = less light; HEK cells with a luciferase reporter of 2A StopGo recoding; active means well fitted falling curve with a large enough effect; inconclusive means small, poorly fitted or top-dose-only effect; inactive means no such curve, though single readings can be large or run the other way; note: nearly all actives have a fitted effect of over 55% in size; overnight with compound
StopGo FLuc = FMDV 2A StopGo reporter, firefly signal; HEK cells with a luciferase reporter of 2A StopGo recoding; 0.23% of 120,000 active; AID 1745856; Potency, µM (series often up to 57.5 µM), inactives show top-dose signal change, negative = less light; active = well fitted falling curve with a large enough effect; inconclusive = small, poorly fitted or top-dose-only effect; inactive = no such curve, though single readings can be large or run the other way; note: nearly all actives have a fitted effect of over 60% in size; overnight with compound
Starred values were filed as active, the others as inactive; ? = inconclusive; & = joins results of further samples; [ ] = remark or other dose. % is set by controls: 0 for no effect and ±100 for the full control effect; potency is the fitted concentration of half-maximal effect.

A first look, 5 compounds:
Under each structure: StopGo RLuc | StopGo FLuc
[1] CCCn1nc(C)cc1CN(C)c1ccc(NC(=O)c2cccc(Cl)c2)cc1C(=O)O
    24% | 10%
[2] COc1ccc(Cl)cc1NC(=O)c1cnc(SC)nc1-c1ccccc1
    34%[activator] | 6%
[3] N#Cc1cccc(NCc2cc(Br)ccc2F)c1
    14% | 20%
[4] Cc1ccc(CN(C)CC(=O)N(C)c2c(N)n(Cc3ccccc3)c(=O)[nH]c2=O)cc1
    -11% | -8%
[5] O=C(CSc1nnc(-c2ccc(F)cc2)n1CC1CCCO1)Nc1ccc(CN2CCCC2)cc1 (stereo not given)
    8% | -9%

This part in full, from the first entry:
Under each structure: StopGo RLuc | StopGo FLuc
[1] CCCn1nc(C)cc1CN(C)c1ccc(NC(=O)c2cccc(Cl)c2)cc1C(=O)O
    24% | 10%
[2] COc1ccc(Cl)cc1NC(=O)c1cnc(SC)nc1-c1ccccc1
    34%[activator] | 6%
[3] N#Cc1cccc(NCc2cc(Br)ccc2F)c1
    14% | 20%
[4] Cc1ccc(CN(C)CC(=O)N(C)c2c(N)n(Cc3ccccc3)c(=O)[nH]c2=O)cc1
    -11% | -8%
[5] O=C(CSc1nnc(-c2ccc(F)cc2)n1CC1CCCO1)Nc1ccc(CN2CCCC2)cc1 (stereo not given)
    8% | -9%
[6] Cc1cccc(NC(=O)C(C)OC(=O)C2=CN3CCS(=O)(=O)N=C3C=C2)c1 (stereo not given)
    -6% | 2%
[7] O=C(CSc1nnc2ccc(-c3cccs3)nn12)N1CCOCC1
    7% | 0%
[8] CCCC(C)C(=O)Nc1cc(C(=O)OCC)cc(C(=O)OCC)c1 (stereo not given)
    -2% | -18%
[9] CCOc1ccc(NC(=O)c2ccc3c(SCC(=O)O)c4c(nc3c2)CCC4)cc1
    -18% | -16%
[10] CCCCc1nnc(SCc2cc(=O)c3cc(C(=O)OCC)ccc3[nH]2)n1C
    -12% | 2%
[11] CCn1cc(S(=O)(=O)c2ccc(OC)cc2)c(=O)c2cc(F)c(N3CCC(C)CC3)cc21
    3% | 22%
[12] Cc1ccc(NC(=O)Cc2nc(CSc3nncn3-c3cc(C)ccc3C)cs2)cc1
    28% | 32%[activator]
[13] CN(C)c1ccc(CNC(=O)CN2C(=O)CCn3nc(-c4cn(C)c5ccccc45)cc32)cc1
    -1% | -16%
[14] O=C(/C=C/c1ccc(Br)cc1)c1ccc(O)cc1
    -6% | 0%
[15] N#Cc1nc(-c2ccco2)oc1N1CCN(C(=O)NCC2CC2)CC1
    -19% | -13%

Under each structure: StopGo RLuc | StopGo FLuc
[16] COc1cc(C(=O)Nc2ccc3oc(=O)ccc3c2)ccc1C
    4% | 99%[activator]
[17] COc1cc(NS(=O)(=O)c2ccccc2Cl)c(C(=O)O)cc1OC
    -9% | -3%
[18] OCCN1CCN(c2ncnc3c2cnn3-c2cccc(Cl)c2)CC1
    -19% | 161%[activator]
[19] C[Si](C)(C)CN1CCN(CC(=O)Nc2ccccc2Cl)CC1
    -12% | -20%
[20] CCOc1cc(CNC(=O)NC2COc3ccccc3C2)cc(OCC)c1OCC (stereo not given)
    11% | 8%
[21] CCCCCc1ccc(/C=C/c2ccc(C3CCC(CCC)CC3)cc2)nc1 (stereo not given)
    -3%[1.06 µM] | 20%
[22] c1ccc(OCCCCN2CCC(c3nc4ccccc4s3)CC2)cc1
    5% | 19%
[23] CCOc1ccc2oc(=O)cc(CN3CCN(CC(=O)Nc4ccc5c(c4)OCCO5)CC3)c2c1
    13% | 52%[activator]
[24] COc1ccc(-n2c(/C=C/c3cccc(C(F)(F)F)c3)nc3ccccc3c2=O)cc1Cl
    -13% | 2%
[25] COc1ccc(N2CCN(c3csc4ccc(Cl)cc4c3=O)CC2)cc1
    52%[activator] | 22%
[26] Cc1nc(SCC(C)C)c2c(=O)n(C)c(=O)n(CC(C)C)c2n1
    5% | 7%
[27] CC(=O)NC1(C(F)(F)F)C(=O)N(Cc2ccccc2)C(C)=C1C(=O)c1ccccc1 (stereo not given)
    -5% | -5%
[28] CCSc1nnnn1-c1cccc(C(=O)O)c1
    -12% | -7%
[29] CNCC(=O)c1ccc(O)c(O)c1
    -11% | -20%[11.5 µM]
[30] CCOc1ccc(NC(=O)Cn2c(=O)n(Cc3ccc4c(c3)OCO4)c(=O)c3ccc(C(=O)NC4CCCCC4)cc32)cc1
    -12% | -8%

Under each structure: StopGo RLuc | StopGo FLuc
[31] O=C(Nc1ncc2c(n1)CC(c1cccs1)CC2=O)c1ccc(F)cc1 (stereo not given)
    -4% | 30%
[32] Cc1cc(C)c(Cn2c(=O)n(-c3ccccc3Cl)c(=O)c3c(C)c(C(=O)N(C)C)sc32)c(C)c1
    -10% | -20%
[33] Cc1ccc(NC(=O)C(=O)NCC(c2cccnc2)N2CCN(C)CC2)cc1C (stereo not given)
    31%[activator] | -6%
[34] Cc1ccc(F)cc1NC(=O)Cn1c(=O)nc(-c2ccccc2F)c2cc(Cl)ccc21
    5% | 13%
[35] COc1cc(OC)c(N(C)C(=O)Nc2cn(CC(C)C)c(=O)c3ccccc23)cc1Cl
    33%[activator] | -1%
[36] CCc1c(-c2ccccc2)nc2ccccc2c1C(=O)NC(C)c1ccccc1 (stereo not given)
    83%[activator] | 52%[activator]
[37] CC(=O)Nc1ccc(NC(=O)Cn2c(=O)ccc3cc(S(=O)(=O)N4CCC(C)CC4)ccc32)cc1
    6% | 0%
[38] COc1ccc(-c2ocnc2C(=O)Nc2cccc(Cl)c2C)cc1OC
    -6% | 1%
[39] Nc1nnnn1NCc1cc(Br)ccc1OCc1ccccc1
    24% | 2%
[40] O/N=C1\CCOc2ccccc21
    -2% | 61%[activator]
[41] CNC(=O)c1cc(=O)n(CC(=O)Nc2cccc(C#N)c2)c2ccccc12
    -11% | -5%
[42] O=C(CCn1ncc(=O)c2ccccc21)N1CCCC1c1ccc2c(c1)OCCO2 (stereo not given)
    0% | 0%
[43] Cc1cc(C)c(S(=O)(=O)n2cc3c(=O)n(C)c(=O)n(C)c3n2)cc1C
    1% | 7%
[44] Cc1ccc(-n2nc(C(=O)NC(C)C)c(=O)n(C)c2=O)cc1
    11% | 21%
[45] CCC(C)C(=O)NCC(OC)c1ccccc1 (stereo not given)
    3% | 0%

Screen by screen, from the results shown:
Entries 18 to 21 in StopGo FLuc: 161%[activator], -20%, 8%, 20%
Entries 18 to 21 in StopGo RLuc: -19%, -12%, 11%, -3%[1.06 µM]

Returning to the listing with the seven entries that preceded the break.
Under each structure: StopGo RLuc | StopGo FLuc
[39] Nc1nnnn1NCc1cc(Br)ccc1OCc1ccccc1
    24% | 2%
[40] O/N=C1\CCOc2ccccc21
    -2% | 61%[activator]
[41] CNC(=O)c1cc(=O)n(CC(=O)Nc2cccc(C#N)c2)c2ccccc12
    -11% | -5%
[42] O=C(CCn1ncc(=O)c2ccccc21)N1CCCC1c1ccc2c(c1)OCCO2 (stereo not given)
    0% | 0%
[43] Cc1cc(C)c(S(=O)(=O)n2cc3c(=O)n(C)c(=O)n(C)c3n2)cc1C
    1% | 7%
[44] Cc1ccc(-n2nc(C(=O)NC(C)C)c(=O)n(C)c2=O)cc1
    11% | 21%
[45] CCC(C)C(=O)NCC(OC)c1ccccc1 (stereo not given)
    3% | 0%
[46] COc1ccc2[nH]c(C(=O)NCC(=O)Nc3ccc4c(c3)OCCO4)cc2c1OC
    11% | 20%
[47] Cc1ccc(-c2cc(C(=O)N3CCN(C(=O)c4ccc(Br)o4)CC3)[nH]n2)cc1C
    19% | 48%[activator]
[48] O=C(CSc1nc(C2CC2)n(-c2ccccc2)n1)Nc1ccccc1
    20% | 3%
[49] COc1cccc(N2CCN(C(=O)c3c4c(nc5ccccc35)C(=O)N(C3CCCCC3)C4)CC2)c1
    110%[activator] | -19%
[50] CC(NC(=O)c1n[nH]c(=O)c2ccccc12)c1ccc(F)cc1F (stereo not given)
    4% | 26%
[51] Cc1ccc2c(CN3CCN(CCO)CC3)cc(=O)oc2c1
    -7% | 10%
[52] Cc1cc(C)c2oc(C(=O)NCC(c3ccc(C)o3)N(C)C)cc(=O)c2c1 (stereo not given)
    -6% | 3%
[53] COc1nn(C)c2nc(C)c(CCC(=O)NC(C)C(C)C)c(C)c12 (stereo not given)
    -8% | 2%
[54] COc1ccc(-c2csc3ncnc(Nc4cc(OC)c(OC)c(OC)c4)c23)cc1
    -10% | -8%
[55] COc1ccc(-n2c(SCC(=O)N(C)c3ccccc3)nc3[nH]ncc3c2=O)cc1Cl
    -3% | 8%
[56] Cc1cc(C)c(NC(=O)Cn2c(=O)n(CC(=O)NCc3ccccc3Cl)c(=O)c3sccc32)c(C)c1
    -11% | -7%
[57] CCc1ccc(NC(=O)CCCn2nc(C)c3c(C)n(-c4ccccc4)nc3c2=O)cc1
    -2% | -4%
[58] O=C(Nc1ccccc1)c1sc(NCCc2ccccc2)nc1-c1ccc([N+](=O)[O-])cc1
    9% | 81%[activator]
[59] Cc1cc(NC(=O)CS(=O)(=O)c2ccc(C(C)(C)C)cc2)no1
    21% | 0%
[60] Cn1c(=O)c2c(nc(SCCN3CCCCC3)n2Cc2ccc(Cl)cc2)n(C)c1=O
    -13% | -9%

Under each structure: StopGo RLuc | StopGo FLuc
[61] Cn1nnc2c(N3CCN(c4ccccc4F)CC3)ncnc21
    -8% | 3%
[62] CCOC(=O)Cc1c(C)nc2c(-c3ccc(Cl)cc3)c(C(F)(F)F)nn2c1C
    4% | 12%
[63] Cc1ccc(Cl)cc1NC(=O)Cc1ccc(-n2c(C)nc3cccnc32)cc1
    0% | -8%
[64] CNC(=O)/C(=C/c1cc2ccc(OC)cc2nc1Cl)NC(=O)c1ccccc1
    -15% | -1%
[65] CCc1nc2sc(-c3ccncc3)c(N)c2cc1C
    14% | 70%[activator]
[66] O=C(O)CSCC(=O)c1c[nH]c2ccccc12
    22% | 33%[activator]
[67] Cc1ccccc1C(=O)N1CCN(c2oc(-c3ccc(F)cc3)nc2C#N)CC1
    -2% | 1%
[68] COc1ccc(CNc2nc3c(c(=O)n(C)c(=O)n3C)n2Cc2ccccc2Cl)cc1
    3% | -2%
[69] CNC[C@H](O)[C@@H](O)[C@H](O)[C@H](O)CO
    1% | -5%
[70] CCCc1ncc(C(O)c2cccc(OC)c2OC)n1C (stereo not given)
    -9% | -12%
[71] Cc1ccccc1-n1cnnc1SCC(=O)Nc1ccccc1C(=O)NCCc1ccccc1
    -3% | 58%[activator]
[72] Cc1ccc(-n2nc(N3CCN(S(=O)(=O)c4cccc5nsnc45)CC3)ccc2=O)cc1
    -20% | -25%
[73] CCOC(=O)c1c(NC(=O)CSc2cn(CCNC(=O)c3ccccc3F)c3ccccc23)sc2c1CCC2
    -6% | 26%
[74] O=C(COC(=O)C12CC3CC(CC(Cl)(C3)C1)C2)Nc1cccc([N+](=O)[O-])c1
    -11% | 4%
[75] CCc1ccccc1NC(=O)CN(Cc1ccccc1)S(=O)(=O)c1ccc2nc(C)sc2c1
    13% | -6%

Under each structure: StopGo RLuc | StopGo FLuc
[76] O=[N+]([O-])c1cccc(/C=N/N=C(c2ccccc2)c2ccccc2)c1
    -23% | 8%
[77] Cc1ccc(NC(=O)N2CCC3(CC2)Oc2ccccc2C(=O)N3Cc2ccc(F)cc2)cc1
    -9%&-10% | 126%&62%[activator]
[78] COc1nc(C(=O)NC2(c3ccccc3)CCC2)cc2ccccc12
    4.5µM* | ?
[79] CCOC(=O)c1cc2c(=O)n3ccccc3nc2n(Cc2ccco2)c1=NC(=O)c1cccc(Br)c1
    39%[activator] | 72%[activator]
[80] O=C(Nc1ccc2nc(SCC(=O)N3CCc4ccccc43)sc2c1)c1cccc(F)c1
    -13% | 0%
[81] CCCC(C)NC(=O)c1ccc2c(c1)NC(=O)CS2 (stereo not given)
    7% | 18%
[82] COc1ccc(NC(C)=O)cc1NC(=O)CNc1ccc(C)cc1Cl
    -8% | 3%
[83] CNc1c(NC(=O)Nc2ccc(F)cc2F)c(=O)oc2ccccc12
    -1% | 13%
[84] COc1ccc2c(CN3CCN(c4ccc(F)cc4)CC3)cc(=O)oc2c1
    -6% | 11%
[85] COc1ccccc1CNC(=O)c1cccc(Nc2nc3ccccc3n3nnnc23)c1
    0% | 7%
[86] Cc1ccn2c(=O)cc(COc3ccccc3NC(=O)Nc3ccccc3F)nc2c1
    2% | 30%
[87] COc1ccc(CC(=O)NCCc2csc(-c3cccc(F)c3)n2)cc1OC
    3% | -8%
[88] COc1ccc(-c2nc(-c3ccccc3)c(-c3ccc(F)cc3)[nH]2)c(OC)c1C
    -9% | -5%
[89] CCN(C(=O)COC(=O)c1nc2nc(C)cc(C)n2n1)C1CCS(=O)(=O)C1 (stereo not given)
    10% | 18%

At a glance, some entries already given.
Under each structure: StopGo RLuc | StopGo FLuc
[86] Cc1ccn2c(=O)cc(COc3ccccc3NC(=O)Nc3ccccc3F)nc2c1
    2% | 30%
[87] COc1ccc(CC(=O)NCCc2csc(-c3cccc(F)c3)n2)cc1OC
    3% | -8%
[88] COc1ccc(-c2nc(-c3ccccc3)c(-c3ccc(F)cc3)[nH]2)c(OC)c1C
    -9% | -5%
[89] CCN(C(=O)COC(=O)c1nc2nc(C)cc(C)n2n1)C1CCS(=O)(=O)C1 (stereo not given)
    10% | 18%
